VACV Venus inh = qHTS for Stage-Specific Inhibitors of Vaccinia Orthopoxvirus: Venus Reporter Primary qHTS; Potency, µM (titrated, usually from 36.5 µM), without a hit: top-dose activity change, negative = inhibition, usual class: inhibitors; Vaccinia virus Venus reporter expression, fluorescence; AID 720580, 2013; actives 0.46% (n = 330,000); active means well fitted inhibition curve with a large enough effect; inconclusive means small, poorly fitted or top-dose-only effect; inactive means no such curve, though single readings can be large or run the other way; tested in A549 cells; also: nearly all actives have a fitted effect of over 30% in size; inactives centre near -10
Vaccinia mCherry = qHTS for Stage-Specific Inhibitors of Vaccinia Orthopoxvirus: mCherry Reporter Primary qHTS; actives 0.63% (n = 310,000); Vaccinia virus mCherry reporter infection, fluorescence; about a quarter of the inactives have no number; Potency, µM (highest dose often 36.5 µM), without a hit: top-dose activity change, negative = inhibition, most hits filed as inhibitors; active = well fitted inhibition curve with a large enough effect; inconclusive = small, poorly fitted or top-dose-only effect; inactive = no such curve, though single readings can be large or run the other way; tested in A549 cells; also: nearly all actives have a fitted effect of over 35% in size; inactives centre near -10
* = called active by the depositor; & = joins results of further samples; [ ] = another dose, or the depositor's remark. % is scaled to controls: 0 for no effect and ±100 for the full control effect; potency is read from the fitted curve at half-maximal effect.

Start of the listing, in advance:
`Cc1cccc(NC(=O)c2ccc(NCCc3ccccc3)c([N+](=O)[O-])c2)c1` gave VACV Venus inh -14% and Vaccinia mCherry -12%.
`COc1cc(C(=O)NCC(=O)NCC2COc3ccccc3O2)cc(OC)c1OC` (stereo unspecified) gave VACV Venus inh -6% and Vaccinia mCherry -14%.

This part in full, repeating the preview:
`Cc1cccc(NC(=O)c2ccc(NCCc3ccccc3)c([N+](=O)[O-])c2)c1` gave VACV Venus inh -14% and Vaccinia mCherry -12%.
`COc1cc(C(=O)NCC(=O)NCC2COc3ccccc3O2)cc(OC)c1OC` (stereo unspecified) gave VACV Venus inh -6% and Vaccinia mCherry -14%.
`NCCS(=O)(=O)NC1CCCCC1` gave VACV Venus inh -7% and Vaccinia mCherry -2%.
NC(=O)c1ccc(-n2nc(C(F)(F)F)c3c2CCCC3)cc1 was read as VACV Venus inh -17% and Vaccinia mCherry inactive.
Screening CCCCN1C(=O)C2(OCCCO2)c2cccc(C)c21 returned VACV Venus inh -16% and Vaccinia mCherry inconclusive.
Screening CCOc1ccc(Nc2oc(-c3ccc(Cl)cc3)nc2C#N)cc1 returned VACV Venus inh inconclusive and Vaccinia mCherry inconclusive.
For CCn1ccc2c(OCC(=O)Nc3ccc(C)c(Cl)c3)cccc2c1=O the results were VACV Venus inh -15% and Vaccinia mCherry -22%.
`COc1ccccc1OCc1nnc(-c2ccccc2)o1` gave VACV Venus inh -15% and Vaccinia mCherry -9%.
`CCCCOP(=O)(c1ccc(N(C)C)cc1)C(O)c1cc(OC)c(OC)c(OC)c1` (stereo unspecified) gave VACV Venus inh -12% and Vaccinia mCherry inactive.
`Cc1ccccc1C1c2[nH]c3ccccc3c2CCN1C(=O)c1ccc(=O)n(C)n1` (stereo unspecified) gave VACV Venus inh -12% and Vaccinia mCherry -17%.
`O=C(COc1ccc(F)cc1)Nc1ccc(OCc2cc(=O)n3ccsc3n2)cc1` gave VACV Venus inh -4% and Vaccinia mCherry -3%.
COc1ccc(NC(=O)c2nc[nH]c2C(=O)NCc2ccccc2)cc1 was read as VACV Venus inh -25% and Vaccinia mCherry -12%.
For O=C(O)c1ccn2c(C(=O)c3ccccc3)c(-c3ccccc3)cc2c1 the results were VACV Venus inh -1%[7.34 µM] and Vaccinia mCherry -11%[7.34 µM].
For COCC(C)n1c(COc2ccccc2F)nnc1SCc1c(C)noc1C (stereo unspecified) the results were VACV Venus inh 0% and Vaccinia mCherry -5%.
CC1CCC(C(C)C)C(OC(=O)C[n+]2cc(-c3ccc(Cl)cc3)n3c2CCC3)C1 (stereo unspecified) was read as VACV Venus inh -10% and Vaccinia mCherry -18%.
Screening COc1ccc(NC(=O)/C=C/c2cccc(Br)c2)cn1 returned VACV Venus inh -17% and Vaccinia mCherry -17%.
Screening O=C(c1ccc([N+](=O)[O-])o1)N1CCOCC1 returned VACV Venus inh 1% and Vaccinia mCherry -3%.
Screening CCn1c(CNC(=O)c2ccccc2F)nnc1SCC(=O)Nc1nncs1 returned VACV Venus inh -6% and Vaccinia mCherry -4%.
CC1CC(N(C(=O)c2ccco2)c2ccccc2)c2ccccc2N1 (stereo unspecified) was read as VACV Venus inh -20% and Vaccinia mCherry inactive.
`CN(C)C(=O)c1cc2cc(Br)ccc2s1` gave VACV Venus inh -9% and Vaccinia mCherry -30%.

Fetched one by one from above (seven):
`COc1ccccc1OCc1nnc(-c2ccccc2)o1` gave VACV Venus inh -15% and Vaccinia mCherry -9%.
`COc1cc(C(=O)NCC(=O)NCC2COc3ccccc3O2)cc(OC)c1OC` (stereo unspecified) gave VACV Venus inh -6% and Vaccinia mCherry -14%.
CC1CCC(C(C)C)C(OC(=O)C[n+]2cc(-c3ccc(Cl)cc3)n3c2CCC3)C1 (stereo unspecified) was read as VACV Venus inh -10% and Vaccinia mCherry -18%.
Screening CCOc1ccc(Nc2oc(-c3ccc(Cl)cc3)nc2C#N)cc1 returned VACV Venus inh inconclusive and Vaccinia mCherry inconclusive.
NC(=O)c1ccc(-n2nc(C(F)(F)F)c3c2CCCC3)cc1 was read as VACV Venus inh -17% and Vaccinia mCherry inactive.
COc1ccc(NC(=O)c2nc[nH]c2C(=O)NCc2ccccc2)cc1 was read as VACV Venus inh -25% and Vaccinia mCherry -12%.
`Cc1ccccc1C1c2[nH]c3ccccc3c2CCN1C(=O)c1ccc(=O)n(C)n1` (stereo unspecified) gave VACV Venus inh -12% and Vaccinia mCherry -17%.

(continued)
`Cc1ccc(-n2c(=O)c3c(c4cc(C)ccc4n3C)n(CC(=O)Nc3c(C)cccc3C)c2=O)cc1` gave VACV Venus inh -8% and Vaccinia mCherry -11%.
Screening CC(C)c1nc2sc3c(SCC(N)=O)ncnc3c2c2c1CCC2 returned VACV Venus inh 4%[7.34 µM] and Vaccinia mCherry -4%[7.34 µM].
CN(C)c1ccc(/C=N/NC(=O)CN(c2cccc(Cl)c2)S(C)(=O)=O)cc1Br was read as VACV Venus inh inconclusive.
For CC(=O)OCn1ncc(N2CCOCC2)c(Br)c1=O the results were VACV Venus inh -11% and Vaccinia mCherry inactive.
Screening Cc1nn(Cc2ccccc2)c(Cl)c1/C=C/C(=O)OC(C)C(=O)N1CCCC1 (stereo unspecified) returned VACV Venus inh -11% and Vaccinia mCherry inactive.
Screening CCCS(=O)(=O)N1CCN(Cc2ccc([N+](=O)[O-])cc2)CC1 returned VACV Venus inh 6% and Vaccinia mCherry -14%.
`COc1ccc2nc3sc(C(=O)Nc4ccccc4F)cc3cc2c1` gave VACV Venus inh -9% and Vaccinia mCherry -15%.
NC(=O)CC(NC(=O)c1ccccc1)c1ccc(N2CCc3ccccc3C2)c([N+](=O)[O-])c1 (stereo unspecified) was read as VACV Venus inh inconclusive and Vaccinia mCherry inconclusive.
CCOc1ccc(OCCCCN2CCCC2)cc1 was read as VACV Venus inh -18% and Vaccinia mCherry -23%.
Screening CCOc1cc(C2NC(=O)NC(O)(C(F)(F)F)C2C(=O)c2ccc(Cl)cc2)ccc1O (stereo unspecified) returned VACV Venus inh -19% and Vaccinia mCherry -25%.
`Cc1cc(C)c(NC(=O)c2cc3c(=O)n4ccccc4nc3n2C)c(C)c1` gave VACV Venus inh -29% and Vaccinia mCherry -3%.
Screening COc1cccc(Cn2nnc(C(=O)NCCc3ccc(Cl)cc3)c2N)c1 returned VACV Venus inh -5% and Vaccinia mCherry -17%.
`Cc1ccc(Cl)cc1NC(=O)c1ccc(Cn2cc(Cl)cn2)cc1` gave VACV Venus inh inconclusive and Vaccinia mCherry -10%.
For N/C(=N\OC(=O)c1ccccc1)c1ccncc1 the results were VACV Venus inh 0% and Vaccinia mCherry inactive.
Screening NC(=S)N/N=C/c1coc2cc(Cl)ccc2c1=O returned VACV Venus inh -3% and Vaccinia mCherry -7%.
Screening N#Cc1c(NC(=O)c2cc3nc(-c4ccc(Br)cc4)cc(C(F)(F)F)n3n2)sc2c1CCCC2 returned VACV Venus inh -8% and Vaccinia mCherry -11%.
For O=C(CSC1CCCCC1)Nc1nccs1 the results were VACV Venus inh -12% and Vaccinia mCherry inactive.
For Cc1cccc(N2CCN(c3ncnc4c3nc3n4CCCCC3)CC2)c1C the results were VACV Venus inh -11% and Vaccinia mCherry -13%.
For CO/N=C\c1cc(C(=O)c2ccc(Cl)cc2Cl)cn1C the results were VACV Venus inh -5% and Vaccinia mCherry -30%.
`CCC[C@@H](CN1CCC[C@H]1CN1C(N)=NC[C@@H]1Cc1ccccc1)N1C[C@@H](Cc2ccccc2)N(CCc2ccc(Cl)c(Cl)c2)C1=N` gave VACV Venus inh -4% and Vaccinia mCherry inactive.
CN1CCN(C(=O)c2cnn(-c3ccccc3)c2NC(=O)c2ccccc2Cl)CC1 was read as VACV Venus inh -8% and Vaccinia mCherry inactive.
`Cc1cccc(N2CCN(C(=O)CCn3c(=O)[nH]c4ccccc4c3=O)CC2)c1C` gave VACV Venus inh -13% and Vaccinia mCherry -20%.
Screening Cc1cccc(CNC(=O)CSCc2cnn(-c3ccccc3)c2-n2cccc2)c1 returned VACV Venus inh -10% and Vaccinia mCherry -7%.
For COC(=O)C1=C(c2ccc(F)cc2OCc2ccccc2)C[C@@H]2CC[C@H]1N2C(=O)NCCCOC(C)C the results were VACV Venus inh inconclusive and Vaccinia mCherry -14%.
O=S(=O)(c1ccc(NC(=S)N/N=C/c2ccc(N3CCOCC3)cc2)cc1)N1CCOCC1 was read as VACV Venus inh -7% and Vaccinia mCherry inactive.
`CC(C)N(CCO)Cc1nc(N2CCOCC2)c2cc(Cl)ccc2n1` gave VACV Venus inh 0% and Vaccinia mCherry -8%.
For O=C(CCN1CCCCO1)N1CCCC(Nc2ccc(F)cc2)C1 (stereo unspecified) the results were VACV Venus inh -13% and Vaccinia mCherry inactive.
For CN(c1ccc(OCc2nnc(-c3ccccc3)o2)cc1)S(=O)(=O)c1ccccc1 the results were VACV Venus inh -11%.
O=C(O)c1ccc2c(c1)S(=O)(=O)c1cc(N3CCN(c4cnccn4)CC3)ccc1C2=O was read as VACV Venus inh -1% and Vaccinia mCherry -18%.
Screening O=C(/C=C/c1cccc(Cl)c1Cl)OCC(=O)N1CCOCC1 returned VACV Venus inh -24% and Vaccinia mCherry -11%.
Screening CCOCCCNC(=O)Cn1cc2c(n1)-c1c(oc(C(=O)N3CCCC3)c1C)CC2 returned VACV Venus inh -10%&-9% and Vaccinia mCherry -6%&-13%.
For CN1CCC(=NNc2ncnc3sc4c(c23)CCCC4)CC1 the results were VACV Venus inh -5% and Vaccinia mCherry inactive.
For Cc1nc(SCC(=O)NC(=O)NC(C)C)nc(C)c1C the results were VACV Venus inh -26% and Vaccinia mCherry -14%.
CCOc1ccc(NC(=O)CCNC(=O)c2ccc(Br)cc2)cc1 was read as VACV Venus inh -19% and Vaccinia mCherry -11%.
CCn1c(SCC(=O)Nc2nc(-c3ccc(C)cc3)cs2)nnc1-c1ccccc1O was read as VACV Venus inh inconclusive.
Screening COCCN(C(=O)c1ccccc1F)c1nc(-c2ccc(OC)cc2)cs1 returned VACV Venus inh -10% and Vaccinia mCherry -10%.
For COc1ccc(CCn2c(-c3ccc(OC)cc3)nc3c(c(=O)c4ccccc4n3C)c2=O)cc1 the results were VACV Venus inh 10% and Vaccinia mCherry inactive.
For CC(=O)Nc1ccc(NC(=O)COC(=O)C2(c3ccc(Cl)cc3)CCCC2)cc1 the results were VACV Venus inh -26% and Vaccinia mCherry inactive.
`COC(=O)C(NC(=O)c1ccccc1)=C(C)C` gave VACV Venus inh 0% and Vaccinia mCherry -18%.
CCn1ccc2c(OCC(=O)NCc3ccc(F)cc3)cccc2c1=O was read as VACV Venus inh 4% and Vaccinia mCherry -4%.
Screening COCCCNC(=O)c1ccc(N(C)S(C)(=O)=O)cc1 returned VACV Venus inh -8% and Vaccinia mCherry -9%.
Screening Cc1ccc(C=NNC(=O)c2cc(-c3cccnc3)nc3ccccc23)o1 returned VACV Venus inh -20% and Vaccinia mCherry inactive.
Screening Cc1ccc(CN(C(=O)c2ccc(F)cc2)c2ccccn2)o1 returned VACV Venus inh -6% and Vaccinia mCherry -19%.
`COc1cc(CNCCO)cc(Cl)c1OCc1ccccc1Cl` gave VACV Venus inh -23% and Vaccinia mCherry -28%.
For Cn1cnnc1SC(C(=O)Nc1cccc(C(F)(F)F)c1)c1ccccc1 (stereo unspecified) the results were VACV Venus inh -24% and Vaccinia mCherry -16%.
Cc1ccc(S(=O)(=O)N2CCCN(C(=O)OC(C)(C)C)CC2)cc1 was read as VACV Venus inh -2%[7.34 µM] and Vaccinia mCherry inactive[7.34 µM].
`N#Cc1cc2c([nH]c1=S)CCCCCC2` gave VACV Venus inh -4% and Vaccinia mCherry inactive.
O=C(Nc1ccc(F)cc1)c1cc2c(s1)CCCC2 was read as VACV Venus inh -14% and Vaccinia mCherry 7%.
`CCOC(=O)C1CCN(S(=O)(=O)Cc2ccccc2)C1=O` (stereo unspecified) gave VACV Venus inh 3% and Vaccinia mCherry inactive.
Cc1ccc(NC(=O)c2cc3ccccc3oc2=O)cc1S(=O)(=O)N(C)C was read as VACV Venus inh -13% and Vaccinia mCherry -7%.
For Cc1nc(NCc2ccccn2)c2c3c(sc2n1)CCCC3 the results were VACV Venus inh -23% and Vaccinia mCherry -11%.
`Cn1c2ccccc2c2n[nH]c(=O)nc21` gave VACV Venus inh 8% and Vaccinia mCherry -12%.
For Cc1ccc2[nH]c(CSc3ccccc3)cc(=O)c2c1 the results were VACV Venus inh -13% and Vaccinia mCherry -9%.
`CCS(=O)(=O)c1ccc(C(=O)NC)c(Cl)c1Cl` gave VACV Venus inh -9% and Vaccinia mCherry inactive.
`COC(=O)c1cc(-c2ccc(OC)c(OC)c2)n[nH]1` gave VACV Venus inh -3%.
CCO/C(C)=C1\C(=O)Nc2ccccc21 was read as VACV Venus inh inconclusive.
Screening COc1cc(-c2coc3c(C(=O)NCc4cccc(Cl)c4)cccc23)ccc1O returned VACV Venus inh inconclusive and Vaccinia mCherry inconclusive.
`COCCCNC(=O)Cn1ccc(NC(=O)OCc2ccccc2)nc1=O` gave VACV Venus inh -7% and Vaccinia mCherry -15%.
`COC(=O)c1cc2ccccc2c(=O)s1` gave VACV Venus inh -15%.
CN(C)CCCN(C(=O)c1cc2ccccc2oc1=O)c1nc2c(F)cccc2s1 was read as VACV Venus inh 0% and Vaccinia mCherry -4%.
`COc1cc(Cl)cc(C=O)c1OCC(=O)O` gave VACV Venus inh -11% and Vaccinia mCherry -15%.
Screening Cc1cccc(C)c1NC(=O)Cn1c(=O)n(CCCC(=O)NC2CCN(Cc3ccccc3)CC2)c(=O)c2ccccc21 returned VACV Venus inh -4% and Vaccinia mCherry -28%.
For COc1ccc(/C=N\NC(=O)c2ccc([N+](=O)[O-])c(C)c2)cc1COc1ccccc1C(N)=O the results were VACV Venus inh -10% and Vaccinia mCherry -15%.

Bioassay records (PubChem BioAssay)
